High-throughput results as filed in PubChem BioAssay.
KCNQ2 pot – KCNQ2 (rat) channel potentiation. CHO-K1 KCNQ2, FluxOR thallium flux fluorescence; hits give high values. hit rate 0.54% among 310,000. AID 2239. B-score at 10 µM. O88943;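 active means fluorescence ratio B-score at least 3 SD of library B-scores, with initial fluorescence B-score within 3 SD, cut at about 5.3 in these data; same plate scores as AID 2156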;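 further: B-score of peak minus minimum over baseline fluorescence ratio after K+ and Tl+ stimulus; positive B-score means potentiation of KCNQ2 with more thallium influx and brighter signal; only the inactives scoring about 0 or higher are listed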
Target sequence (O88943 whole entry, looked up): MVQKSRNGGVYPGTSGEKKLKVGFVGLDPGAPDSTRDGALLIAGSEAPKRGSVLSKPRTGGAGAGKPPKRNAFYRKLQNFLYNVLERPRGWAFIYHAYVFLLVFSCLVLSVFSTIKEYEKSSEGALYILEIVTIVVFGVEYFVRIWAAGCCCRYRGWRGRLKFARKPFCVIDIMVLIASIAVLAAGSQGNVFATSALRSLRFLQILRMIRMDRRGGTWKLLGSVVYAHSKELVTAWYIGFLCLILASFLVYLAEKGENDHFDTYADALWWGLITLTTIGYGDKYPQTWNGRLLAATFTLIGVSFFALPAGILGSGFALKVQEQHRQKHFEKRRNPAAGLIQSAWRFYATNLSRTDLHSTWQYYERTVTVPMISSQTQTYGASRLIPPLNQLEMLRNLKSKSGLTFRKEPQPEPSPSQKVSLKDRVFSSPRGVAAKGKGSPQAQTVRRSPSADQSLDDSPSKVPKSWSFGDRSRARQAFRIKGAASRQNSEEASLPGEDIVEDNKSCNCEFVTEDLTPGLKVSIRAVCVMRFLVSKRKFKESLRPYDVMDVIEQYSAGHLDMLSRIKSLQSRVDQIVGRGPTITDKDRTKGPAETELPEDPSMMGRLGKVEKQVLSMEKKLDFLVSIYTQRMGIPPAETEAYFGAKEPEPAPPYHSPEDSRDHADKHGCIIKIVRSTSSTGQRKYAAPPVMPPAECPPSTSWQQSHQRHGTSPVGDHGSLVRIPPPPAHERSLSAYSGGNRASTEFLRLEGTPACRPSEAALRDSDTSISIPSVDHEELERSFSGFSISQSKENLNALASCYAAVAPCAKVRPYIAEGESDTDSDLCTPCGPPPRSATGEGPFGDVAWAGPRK
KCNQ2 pot baseline – recorded beside KCNQ2 pot, whose call it bears; B-score; compound at 10 µM; measured here: initial fluorescence intensity artifact check;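 brightness before thallium and not channel activity; 0 = typical well and far values either way flag optical interference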
Starred values were filed as active, the others as inactive. This is a subset (hit frequency here may not be typical).

nr	structure	KCNQ2 pot	KCNQ2 pot baseline
1	CCOc1ccc(NS(=O)(=O)c2ccc(C(=O)N3CCC3)cc2)cc1	0.29	-1.85
2	COc1ccccc1N1CC(O)=C(c2nc3ccccc3s2)C1=N	1.06	0.14
3	COc1ccc(C(=O)N[C@H](C(=O)NCc2ccco2)C(C)C)cc1	0.05	-1.17
4	CCCOc1ccc(N2C(=O)CC(NNC(=O)c3ccc(COc4ccccc4)o3)C2=O)cc1 (stereo not given)	0.26	-0.01
5	CCC(C)NC(=O)CSC1=Nc2ccccc2C2=NC(CC(=O)NCc3ccccc3)C(=O)N12 (stereo not given)	0.25	-1.35
6	Cc1[nH]n2c(=O)c3c(nc2c1-c1ccc(F)cc1)CCCC3	0.58	0.36
7	CC1(C)CC(=O)C(=CN2CCOCC2)C(=O)C1	1.5	1.52
8	COc1cccc(CN2CC(C(=O)NCCOc3ccccc3)CCC2=O)c1 (stereo not given)	0.46	2.7
9	COc1ccccc1-c1cc2nc(C)c(CCC(=O)NCc3ccc(F)cc3)c(C)n2n1	0.15	-0.21
10	Cc1cccc(N(CC(=O)NC2CCCCC2)C(=O)Cn2nnc(-c3ccc(C)o3)n2)c1	0.68	-0.05
11	CCc1cccc(CC)c1NC(=O)COC(=O)c1ccc(F)c(S(=O)(=O)N(CC)CC)c1	0.42	0.43
12	C/C(=N\NC(=O)c1ccccc1O)c1ccc(Br)s1	0.65	0.3
13	O=C(CNC(=O)C(c1ccccc1)c1ccccc1)N/N=C/c1ccc(O)cc1O	0.15	-2.44
14	Cc1cc(N/C=C\c2nnnn2-c2ccccc2)no1	0.01	-0.15
15	CCCC(=O)C1=C(O)C(C(=O)OC)C(C)(C)CC1=N (stereo not given)	0.17	1.35
16	O=c1[nH]c2cc3c(cc2cc1CN(Cc1nnnn1CC1CCCO1)C1CCCC1)OCO3 (stereo not given)	0.04	0.1
17	O=C(c1ccco1)N1CCN(C(=O)C2c3ccccc3Oc3ccccc32)CC1	1.46	-1.56
18	O=C(Nc1ccccc1N1CCOCC1)c1ccco1	1.03	0.77
19	CCC1CCCCN1C(=S)NC(=O)c1cccc([N+](=O)[O-])c1 (stereo not given)	4.1	-0.12
20	Cc1cc(NC(=O)CSc2nc(-c3ccc(Cl)cc3)cs2)no1	0.75	0.3
21	O=[N+]([O-])c1cccc(NC(=S)N2CCOCC2)c1	0.28	1.77
22	CCCCCCn1c(SCC(=O)OC)nc2c1c(=O)[nH]c(=O)n2C	0.94	-1.15
23	COc1cc(-c2nc3ccc4ccccc4c3c3c2CCC3)ccc1O	0.43	-0.08
24	COc1cc(C2NC(=O)NC(c3ccccc3)=C2C(C)=O)ccc1OCC(=O)O (stereo not given)	0.03	-0.88
25	O=c1nc(-c2ccccc2)n(-c2ccc(Cl)cc2)[nH]1	0.68	-0.55
26	CCOc1ccc(-n2c(=S)sc3c(=O)[nH]c(SCC(=O)C(C)(C)C)nc32)cc1	0.46	-0.73
27	Cn1cnc([N+](=O)[O-])c1SCC(=O)NN	0.28	-2.1
28	COc1ccc(CN2CCCC(CO)(Cc3ccc(F)cc3)C2)cc1C (stereo not given)	1.19	0.67
29	Cc1ccc(S(=O)(=O)N2CCN(C(=S)NCCc3ccccc3)CC2)cc1	0.12	1.83
30	O=C(Nc1nc(-c2ccccc2)cs1)C1CCCO1 (stereo not given)	0.74	-1.33

Some of these compounds in order of their number in KCNQ2 pot baseline, lowest first.
nr	structure	KCNQ2 pot	KCNQ2 pot baseline
19	CCC1CCCCN1C(=S)NC(=O)c1cccc([N+](=O)[O-])c1 (stereo not given)	4.1	-0.12
21	O=[N+]([O-])c1cccc(NC(=S)N2CCOCC2)c1	0.28	1.77
29	Cc1ccc(S(=O)(=O)N2CCN(C(=S)NCCc3ccccc3)CC2)cc1	0.12	1.83

Further structures
nr	structure	KCNQ2 pot	KCNQ2 pot baseline
31	Cn1c(SCC(=O)NCc2cccs2)nnc1-c1ccco1	0.43	-0.06
32	CCCN(Cc1ccccc1)C(=S)Nc1ccc(F)cc1	1.3	-1.51
33	CCOc1ccccc1NC(=O)Nc1cc(C(=O)O)ccc1C	0.48	1.6
34	CC1CC(=O)C2=C(C1)Nc1ccccc1N(C(=O)COc1ccccc1)C2c1ccco1 (stereo not given)	1.06	-1.37
35	O=C(NCCc1ccccc1)c1cc(S(=O)(=O)N2CCCC2)ccc1F	0.77	-0.27
36	Cc1sc2nc(Cc3ccccc3)[nH]c(=O)c2c1-c1ccccc1	1.17	1.15
37	C/C(=N/NS(=O)(=O)c1ccc(C(C)(C)C)cc1)c1ccc2c(c1)OCO2	1.41	1.46
38	COc1ccc(/C(C)=N/Nc2ccc(C(=O)O)cc2)cc1OC	0.33	2.01
39	COc1ccc(C)cc1NC(=O)C1C2C=CC(C2)C1C(=O)O (stereo not given)	0.01	0.08
40	CCC(C(=O)N1CCOCC1)n1nc(C)c2sc3ccccc3c2c1=O (stereo not given)	0.75	1.76
41	COc1ccc(CN(CCN2CCOCC2)C(=O)c2c(F)cccc2F)cc1OC	0.66	0.08
42	Cc1ccccc1NC(=O)COc1nsnc1N1CCOCC1	0.12	-0.23
43	O=C1NC(=O)/C(=C/c2ccc(O)cc2)S1	0.38	-0.36
44	CCCC1=C(C(=O)OCC)C(c2ccco2)n2ncnc2N1 (stereo not given)	2.07	0.55
45	CCOC(=O)c1ccc(CNS(=O)(=O)c2c(C)ccc3nsnc23)o1	1.11	-0.81
46	Oc1ccc(Br)cc1/C=N/n1c(C2CCCCC2)n[nH]c1=S	7.39*	0.24*
47	CC1CCN(Cc2nnnn2CCCC(=O)NCCc2cnn(C)c2)CC1	0.7	0.5
48	CCN1CCN(C(=O)c2ccc3c(c2)N(Cc2ccc(F)cc2)C(=O)c2ccccc2S3=O)CC1 (stereo not given)	1.85	-1.97
49	CN(N)C(=S)NCc1ccccc1	1.23	2.31
50	O=C(NCc1ccco1)C1Cc2cc(Cl)ccc2O1 (stereo not given)	0.53	2.47
51	CCOC(=O)c1sc2nc[nH]c(=O)c2c1C	2.28	1.39
52	Cc1ccc(CN2C(=O)CCC2C(=O)NCCN2CCN(c3cccc(Cl)c3)CC2)cc1 (stereo not given)	0.86	1.34
53	CNC(=O)COC(=O)c1ccccc1Nc1ccccc1	0.39	-0.58
54	COc1ccccc1Nc1ncc(C(C)=O)c(C)n1	0.21	0.41
55	COc1ccccc1NS(=O)(=O)c1ccc(C)c(NC(=O)NC2CCCCC2)c1	0.35	-0.14
56	Cc1c(NS(=O)(=O)c2cccs2)cccc1-c1nc2cccnc2s1	1.93	-0.16
57	O=Cc1ccc(OC2OCCOC2Oc2ccc(C=O)cc2)cc1 (stereo not given)	1.27	-0.01
58	COc1cccc(Nc2nc(-c3sc(N)nc3C)cs2)c1	0.61	-3.62
59	Cc1nnc(SCCn2c(N3CCCCCC3)nc3c2c(=O)[nH]c(=O)n3C)s1	0.01	-0.61
60	CC(C)(Oc1ccc(Cl)cc1)C(=O)OCc1nc2ccsc2c(=O)[nH]1	1.47	-0.65

Profiles, looked up by structure. Values in the order: KCNQ2 pot	KCNQ2 pot baseline
Results for `CC(C)(Oc1ccc(Cl)cc1)C(=O)OCc1nc2ccsc2c(=O)[nH]1` : 1.47	-0.65
Results for `CCOC(=O)c1ccc(CNS(=O)(=O)c2c(C)ccc3nsnc23)o1` : 1.11	-0.81
Results for `CCOc1ccccc1NC(=O)Nc1cc(C(=O)O)ccc1C` : 0.48	1.6

Continued:
nr	structure	KCNQ2 pot	KCNQ2 pot baseline
61	CCN(c1ccccc1)S(=O)(=O)c1ccc(NC(=O)C(C)(C)C)cc1	0.71	-0.34
62	CC(C)(C)C(=O)c1cn(CC(=O)NCc2ccc3c(c2)OCO3)c2ccccc12	2.26	0
63	COc1ccc(/C=C/C(=O)Nc2ccc3nc4n(c(=O)c3c2)CCCC4)cc1	0.33	1
64	CCS(=O)(=O)C1=NN2C(=N)/C(=C\c3ccc(OC(=O)c4ccco4)c(OC)c3)C(=O)N=C2S1	0.26	-0.2
65	COc1ccc(C2N(c3cc(C)on3)C(=O)C3CCCN32)cc1OC (stereo not given)	0.07	-0.06
66	CCOC(=O)C(NC(=O)c1ccccc1)(Nc1cc(C)on1)C(F)(F)F (stereo not given)	1.09	-0.54
67	C=CCOC(=O)C1=C(C)OC(N)=C(C#N)C1c1c(C)nn(-c2ccccc2)c1Cl (stereo not given)	0.42	-0.98
68	CC1(C)Cc2c(sc(NC(=O)C(=O)N3CCN(CCO)CC3)c2C(N)=O)CO1	0.36	1.44
69	Cc1cc(C)c2c(N)c(C(=O)NN3CC(=O)N(c4ccccc4F)CC3=O)sc2n1	2.34	-0.02
70	COC(=O)C1C(=O)NC(SC)=C(C#N)C1c1ccccc1F (stereo not given)	0.62	-2.19
71	Cc1ccccc1NC(=O)Nc1ccccc1C(N)=O	0.87	1.46
72	COc1ccccc1C(=O)c1c(C)c(CCC#N)n2ccccc12	4	-0.97
73	CCCSc1nnc2nc3c(nn12)c1ccccc1n3C	0.72	-1.51
74	O=C(c1cccs1)N1CCN(c2ncccn2)CC1	1.38	1.01
75	CSC1=NCCN1C(=O)c1ccco1	0.36	0.33
76	Cc1noc(/C=C/N(C)C)c1S(=O)(=O)N1CCCC(C(=O)Nc2ccc(F)cc2F)C1 (stereo not given)	1.61	0.27
77	Cc1ccc(CN(C(=O)c2ccco2)C(C(=O)NC2CCCC2)c2cccnc2)cc1 (stereo not given)	0.05	-1.7
78	CNC(=S)N/N=C/c1cn(Cc2ccc(F)cc2)c2ccccc12	0.76	-0.09
79	CN1CCN(C/C(=C2/N=C(c3ccccc3)OC2=O)N(C)C)CC1	1.59	-0.21
80	COc1ccccc1C(=O)NC(=O)COC(=O)c1cccc(C)c1O	1.56	0.58
81	CCn1c(SC(C)C(=O)OC)nnc1-c1c[nH]c2ccccc12 (stereo not given)	1.54	-1.67
82	COc1ccccc1NC(=O)CNC(=O)c1ccc([N+](=O)[O-])cc1	1.19	-0.42
83	CCn1cc(C(=O)NC(C)C)c(=O)c2cc(F)c(N3CCN(C(=O)c4ccco4)CC3)cc21	0.23	0.03
84	Cc1sc2ncnc(NCC(O)c3ccc([N+](=O)[O-])cc3)c2c1C (stereo not given)	0.11	0.19
85	Cc1ccccc1N1CCN(C2CCCN(C(=O)CCN3CCCO3)C2)CC1 (stereo not given)	1.83	1.35
86	CC(=O)C1=C(C)NC(=O)NC1/C=C/c1ccccc1 (stereo not given)	0.01	0.24
87	COc1ccc(OCC(=O)N(Cc2cccs2)C2CCS(=O)(=O)C2)cc1 (stereo not given)	0.46	0.36
88	CCNC(=O)Nc1ccc(-n2nc(C)c(C(=O)OCC)c2C)nc1	0.08	-0.92
89	N/C(=N\OC(=O)c1cccs1)c1cccnc1	0.91	-1.62
90	CCOC(=O)C1Nc2ccc(C(F)(F)F)cc2C2C=CCC12 (stereo not given)	1.58	-0.05

2 entries from above, with one line to a screen.
62) CC(C)(C)C(=O)c1cn(CC(=O)NCc2ccc3c(c2)OCO3)c2ccccc12
63) COc1ccc(/C=C/C(=O)Nc2ccc3nc4n(c(=O)c3c2)CCCC4)cc1

compound no.	62	63
KCNQ2 pot	2.26	0.33
KCNQ2 pot baseline	0	1

(next part)
nr	structure	KCNQ2 pot	KCNQ2 pot baseline
91	O=C(Nc1ccc(Cl)cc1)N1CCCC1	0.93	0.17
92	COc1cccc(N2CCN(C(=O)CCCCCn3c(=S)[nH]c4cc5c(cc4c3=O)OCO5)CC2)c1	1.28	-0.08
93	COc1ccc2c(c1)c(C(=O)O)c(C)n2-c1ccc(Cl)cc1	1.83	-0.16
94	C[C@H]1C(=O)N(C)CCN1Cc1cn(C)nc1-c1ccc(Oc2ccccc2)cc1	1.09	-0.12
95	COc1ccccc1N1CCN(C(=O)c2cccc(NC3=NC4CS(=O)(=O)CC4S3)c2)CC1 (stereo not given)	1.47	0.43
96	Cc1oc2cc(O)ccc2c(=O)c1Oc1ccccc1Br	1.05	0.81
97	Cc1ccc(-n2c(=O)c3ccccc3n(CC(=O)NCc3ccco3)c2=O)cc1	0.08	-0.21
98	CC(=O)Oc1ccccc1-c1nc(C)nc(N(C)C(C)=O)n1	1.65	-0.1
99	Cc1sc(NC(=O)C2CCCO2)c(C#N)c1C (stereo not given)	0.01	-0.33
100	Cc1ccc(C(c2nnnn2CS(=O)(=O)c2ccc(C)cc2)N2CCCC2)cc1 (stereo not given)	1.67	-0.14
101	O=C(COC(=O)CNS(=O)(=O)c1cccc(Br)c1)Nc1ccccc1Sc1ccccc1	0.03	-1.43
102	COc1cccc(-n2cnc3c(sc4nc(N5CCOCC5)c5c(c43)CCCC5)c2=O)c1	1.14	0.14
103	CCc1nnc(NS(=O)(=O)c2ccc(NC(=O)c3cc(Cl)ccc3OC)cc2)s1	0.39	-2.41
104	COc1cc(C(=O)Nn2cnnc2)ccc1OC(F)F	0.5	0.63
105	O=C(Nc1ccccc1)/C(=C\c1ccc2c(c1)OCO2)NC(=O)c1ccco1	0.74	-0.71
106	CC(=O)NC(Cc1ccc(F)cc1)C(=O)NC1CCN(C(=O)Nc2ccc(F)cc2)CC1 (stereo not given)	0.22	1.6
107	Cc1ccc(S(=O)(=O)CCC(=O)OCC(=O)NCCc2ccc(F)cc2)cc1	1.42	-0.04
